Bioassay records as filed in PubChem.
VDR inhibitor: vitamin D3 receptor (human) inhibition; P11473; AID 504847; 400,000 compounds, 0.93% hits; VDR-SRC2-3 peptide fluorescence polarization, 2 h; Potency, µM, without a hit: max response, negative = inhibition, most hits filed as inhibitors; active = well fitted inhibition curve with a large enough effect; inconclusive = small, poorly fitted or top-dose-only effect, or another doubt; inactive = no such curve, though single readings can be large or run the other way; note: series mostly up to about 120 µM
Target sequence (P11473 whole entry, looked up): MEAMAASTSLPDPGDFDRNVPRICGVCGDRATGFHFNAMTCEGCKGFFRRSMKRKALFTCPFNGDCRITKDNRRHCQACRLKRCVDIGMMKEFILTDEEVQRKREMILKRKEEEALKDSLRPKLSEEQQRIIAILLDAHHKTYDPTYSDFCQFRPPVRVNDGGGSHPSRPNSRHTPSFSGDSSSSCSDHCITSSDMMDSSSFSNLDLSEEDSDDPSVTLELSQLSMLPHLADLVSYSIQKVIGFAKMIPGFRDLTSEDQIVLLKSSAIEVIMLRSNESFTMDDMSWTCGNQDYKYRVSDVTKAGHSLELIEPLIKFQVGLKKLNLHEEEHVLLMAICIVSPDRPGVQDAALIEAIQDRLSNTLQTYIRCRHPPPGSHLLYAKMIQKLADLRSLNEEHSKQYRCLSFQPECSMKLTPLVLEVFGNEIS
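Signal is fluorescence polarization, reporting how far test compounds block the interaction of VDR with the SRC2-3 coregulator peptide after a 2 h room-temperature incubation.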
An asterisk follows results filed as active; ? = inconclusive; & = joins results of further samples. % is set by controls: 0 for no effect and ±100 for the full control effect; potency is the fitted concentration of half-maximal effect.

The first 2 compounds, to show the layout:
compound,VDR inhibitor
O=C(CSc1ccc(-c2ccccc2)nn1)NC1CCCCC1,-8%
COc1cc2c(-c3cc(F)cc(F)c3)c(-c3ccsc3)oc(=O)c2cc1OC,5%

The whole of this part, from the first entry:
compound,VDR inhibitor
O=C(CSc1ccc(-c2ccccc2)nn1)NC1CCCCC1,-8%
COc1cc2c(-c3cc(F)cc(F)c3)c(-c3ccsc3)oc(=O)c2cc1OC,5%
CCc1ccc(N(C(=O)c2snc(C(N)=O)c2N)C(C(=O)NCC2CCCO2)c2ccco2)cc1 (centres undefined),-9%
O=C(CC1C(=O)N(c2ccccc2)C(=S)N1c1ccccc1)c1ccccc1 (centres undefined),-9%
CCC(C)NC(=S)N1CCN(C(c2ccccc2)c2ccccc2)CC1 (centres undefined),-4%
O=C(Cn1c(C(=O)NCC2CCCO2)cc2sccc21)c1ccccc1 (centres undefined),1%
CC(C)N1CCN(Cc2ccncc2)CC1CCO (centres undefined),6%
CC1(OC(=O)C2CCCC2)C(=O)C=C2C=C(c3ccc(C#N)cc3)OC=C2C1=O (centres undefined),?
Cc1ccc(Nc2nnc(SCC(=O)Nc3cccnc3Cl)s2)cc1C,12%
COc1ccccc1N1CCN(C(=O)CSc2nc3ccccc3nc2Cc2ccc(C)cc2)CC1,3%

Further compounds:
compound,VDR inhibitor
COC(=O)C1=C(C)N(Cc2ccccc2)C(=NCc2ccccc2)N[C@H]1c1cccc(C(F)(F)F)c1,-2%
CC(C)=CC(=O)Nc1cccc(S(=O)(=O)NC2=NCCCCC2)c1,-9%
O=C(COc1ccc(/C=C\[N+](=O)[O-])cc1)N1CCOCC1,?
CC(=O)N(c1ccc2oc(=O)sc2c1)S(=O)(=O)c1ccc(C)cc1,71µM*
N/C(CN1CCCC1=O)=N\O,-19%
CSc1sc(C(=O)O)c2c1C(=O)CC(C)(C)C2,-10%
O=C(NCCO)c1cc2c([nH]c3ccccc32)c(-c2ccccc2)n1,-12%
Cc1ccc(NC(=O)[C@H](NC(=O)[C@@H]2Cc3ccccc3CN2)c2ccccc2)cc1,15%
O=C(Nc1ccc(F)cc1)c1cn(-c2ccccc2)nc1-c1ccncc1,-1%
O=C(COc1ccccc1)Nc1cccc(-c2cn3cccnc3n2)c1,-4%&8%

Later entries
compound,VDR inhibitor
CC(=O)OCC(=O)N1N=C(c2ccc3ccccc3c2)CC1c1ccccc1 (centres undefined),-6%
Cc1ccc(CNC(=O)COC(=O)Cn2nc(C)c([N+](=O)[O-])c2C)cc1,-13%
CC1CC(C)CN(CCCNC(=O)c2ccc(N3CCCC3=O)cc2)C1 (centres undefined),-5%
Cc1cccc(-n2ncc3c2CCCC3NC(=O)CN2CCOC2=O)c1C (centres undefined),16%
CCOC(=O)Cc1csc(NC(=O)c2cccc([N+](=O)[O-])c2)n1,9%
O=C(COc1ccccc1CNCc1ccccc1)Nc1ccccc1,1%
CC(=O)NCCc1nc2cc(NC(=O)c3cccc([N+](=O)[O-])c3)ccc2n1C,4%
CCn1c(SCC(=O)N/N=C/c2cc(OC)c(O)c(OC)c2)nc2ccccc21,-13%
COc1ccc2c(c1)O[C@@H](c1cccc(C(F)(F)F)c1)[C@H](OC(=O)NCCOc1ccccc1)C2=O,1%
CCOc1ccc(-c2c(C(=O)N/N=C/c3ccc(C)cc3)nnn2-c2nonc2N)cc1,-13%

(listing goes on)
compound,VDR inhibitor
Cc1ccc(C(C)C)c(OCCNC(=O)c2ccccc2O)c1,-10%
CCNC(=S)Nc1c(C)n(C)n(-c2ccccc2)c1=O,-2%
C[C@@H]1CN(C2CCN(Cc3nc(C(c4ccccc4)c4ccccc4)no3)CC2)C[C@H](C)O1,19%
NS(=O)(=O)c1ccc(CCn2c(=S)[nH]c3ccccc3c2=O)cc1,-23%
Cc1[nH]n(-c2ccccc2)c(=O)c1/C=N/NC(=O)c1cccc([N+](=O)[O-])c1,5%
O=C(COC(=O)CC(c1ccccc1)c1ccccc1)Nc1cccc(F)c1,8%
CCc1ccc(-c2cc(C)no2)cc1S(=O)(=O)N1CCN(c2ccccc2)CC1,-10%
Cc1cccc(-n2ccc(=O)c(C(=O)Nc3ccc(S(=O)(=O)Nc4onc(C)c4C)cc3)n2)c1,7%
Clc1ccccc1OCCSc1nnc(-c2cccs2)o1,-7%
O=C(NNC(=O)c1cccs1)c1ccc2ccccc2c1,-7%

An excerpt from above in order of the VDR inhibitor value, descending:
smiles	VDR inhibitor
C[C@@H]1CN(C2CCN(Cc3nc(C(c4ccccc4)c4ccccc4)no3)CC2)C[C@H](C)O1	19%
Cc1cccc(-n2ccc(=O)c(C(=O)Nc3ccc(S(=O)(=O)Nc4onc(C)c4C)cc3)n2)c1	7%
Cc1[nH]n(-c2ccccc2)c(=O)c1/C=N/NC(=O)c1cccc([N+](=O)[O-])c1	5%
CCNC(=S)Nc1c(C)n(C)n(-c2ccccc2)c1=O	-2%
Cc1ccc(C(C)C)c(OCCNC(=O)c2ccccc2O)c1	-10%

Further records:
compound,VDR inhibitor
COc1ccc(S(=O)(=O)N2CCC(C(N)=O)CC2)cc1C(=O)N1CCCCCC1,10%
O=C(Nc1ccccc1N1CCCCC1)c1cccc(F)c1,-12%
COc1ccccc1NC(=O)C1CCCN1S(=O)(=O)c1cccc2nsnc12 (centres undefined),-11%
CC1=NN(c2ccc(C)cc2)C(=O)/C1=C/c1ccc(-c2cc([N+](=O)[O-])ccc2O)o1,-6%
OCc1cn(-c2ccccc2)nc1-c1cccnc1,-3%
O=C1CCc2cc(S(=O)(=O)Nc3ccccc3)cc3c2N1CCC3,1%
CCOC(=O)c1nnn(CC(=O)Nc2cc(F)ccc2F)c1C(=O)OCC,-18%
O=C(O)c1ccc(NCCC2=CCCCC2)c([N+](=O)[O-])c1,11%
COc1cc([N+](=O)[O-])ccc1N,-5%
CC1CN(S(=O)(=O)c2cc(C(=O)N(C)Cc3cccs3)ccc2Cl)CC(C)O1 (centres undefined),3%

Taken from the entries so far for reference:
compound,VDR inhibitor
NS(=O)(=O)c1ccc(CCn2c(=S)[nH]c3ccccc3c2=O)cc1,-23%
Cc1[nH]n(-c2ccccc2)c(=O)c1/C=N/NC(=O)c1cccc([N+](=O)[O-])c1,5%

Other structures:
compound,VDR inhibitor
CCOc1cc(N2CCOCC2)c(OCC)cc1NC(=O)c1nc2nc(C)cc(C)n2n1,11%
CC(C)Oc1ccc(C(CCNCc2ccc(O)cc2)c2ccccc2)cc1 (centres undefined),-16%
Cc1ccccc1N(C)S(=O)(=O)c1ccc2[nH]cc(C(=O)NCC3CCCO3)c(=O)c2c1 (centres undefined),1%
Cn1cnc(S(=O)(=O)Nc2ccc(OC(F)(F)F)cc2)c1,-7%
COc1cc(C(=O)OCC(=O)N(C)Cc2ccccc2)cc(OC)c1OC,-6%
COCCn1c(Sc2ccc(C)cc2)nc2c1c(=O)[nH]c(=O)n2C,-3%
COc1ccc(S(=O)(=O)N2CCOCC2)cc1C(=O)NCc1ccccc1CN1CCCC1,-8%
Cc1ccc(C(=O)COC(=O)C2CCC2)cc1,13%
CCOC1=NN(c2ncc(C(F)(F)F)cc2Cl)C(=O)C1,-15%
O=C(NCCCn1ccnc1)c1noc2c1CCc1ccccc1-2,-5%

Further results:
compound,VDR inhibitor
O=C(NCCc1ccccc1)c1cnc(Cl)c(Cl)c1,-3%
OCC1(Cc2ccccc2)CCN(Cc2ccc(C(F)(F)F)cc2)CC1,2%
O=C(Cc1cc(=O)[nH]c(=O)[nH]1)NCC1CCCO1 (centres undefined),-13%
Cc1cc(C)nc(SCC(=O)OCN2C(=O)c3ccccc3C2=O)n1,1%
O=C1OCCN1C(=O)[C@H]1[C@H](c2ccc(Cl)cc2)C(c2cccc(Cl)c2)=NN1c1ccccc1,7%&-12%
Cc1oc(-c2ccc3ccccc3c2)nc1CN(C)C(C)c1ccncn1 (centres undefined),-10%
CSc1nc2c(c(-c3ccc(O)cc3)c1C#N)CCC2,7%
CC(C)n1c(O)c(N=Nc2ccc(Cl)c(C(=O)O)c2)c2ccccc21,-7%
COCCN(C(=O)COC(=O)c1cc2c(s1)CCC2)c1c(N)n(Cc2ccccc2)c(=O)[nH]c1=O,-12%
CSc1ncc(S(=O)(=O)c2ccccc2)c(=O)[nH]1,4%

(continued)
compound,VDR inhibitor
CCOC(=O)c1c(NC(=O)COC(=O)c2c(C)noc2C)sc2c1CCC2,6%
COc1ccc(S(=O)(=O)NCC(c2ccc(N(C)C)cc2)N2CCc3ccccc32)cc1 (centres undefined),13%
CC/C=C\[C@H](O)[C@H](O)C1=C(C)C(=O)[C@]2(O1)C(=O)N[C@@](OC)(C(=O)c1ccccc1)C2O (some centres undefined),-8%
O=C(COc1ccc([N+](=O)[O-])cc1)Nc1cccc(C(=O)Nc2ccccc2C(=O)O)c1,0%
O=C(Nc1ccc2c(c1)OCCO2)C1CCN(S(=O)(=O)c2ccccc2)CC1,22%
COc1cc(/C=N/NC(=O)c2cccc(S(=O)(=O)N3CCCC3)c2)ccc1O,7%
COc1ccc(C(=O)/C(=C\c2ccco2)N2C=CC=CC2=C(C#N)C#N)cc1,40µM*
CCNC(=O)CC1C(=O)N(c2ccc(C)cc2)C(=O)N1CCC(C)C (centres undefined),-9%&-6%
O=C(O)C1CC=CCC1C(=O)N1CC=C(c2ccccc2)CC1 (centres undefined),2%
N#Cc1ccccc1Cn1cc(/C=C/[N+](=O)[O-])c2ccccc21,32µM*

CC(C)n1nc(C(=O)Nc2cccc(S(=O)(=O)N3CCCCC3)c2)c2ccccc2c1=O
  VDR inhibitor = -2%
Cc1ccc(/C=N/NC(=O)CNC(=O)c2cccs2)cc1
  VDR inhibitor = -23%
CCc1ccc(NC(=O)Cn2c(=O)n(Cc3ccco3)c(=O)c3cccnc32)cc1
  VDR inhibitor = -14%
Cc1ccc(NC(=O)CSc2nnc(-c3cccnc3)n2CCN2CCCCC2)cc1
  VDR inhibitor = 7%
CC(C)OCCCNC(=O)CCN1C(=O)COc2ccccc21
  VDR inhibitor = 1%
COc1ccc(NC(=O)c2nc(-c3ccc(C)cc3)n3c2CCCCC3)cc1
  VDR inhibitor = -5%
O=C(Nc1ccccc1)c1cccnc1NCCc1ccccc1
  VDR inhibitor = 3%
CN1CCC(N(CCc2ccccc2)C(=O)CCC(=O)O)CC1
  VDR inhibitor = 4%
Cc1nc2cc(Cc3ccccc3)ccc2o1
  VDR inhibitor = -10%
COc1ccc(NC(=O)C2C(c3ccccc3)C2(Cl)Cl)c(OC)c1 (centres undefined)
  VDR inhibitor = -1%

O=C(COC(=O)Cc1ccccc1[N+](=O)[O-])NCc1ccc(Cl)cc1
  VDR inhibitor = 9%
C#CCOCCOCCOCCNc1nc(N2CCOCC2)nc(N2CCN(C(=O)[C@H](C)n3cc(CCC(=O)O)nn3)CC2)n1
  VDR inhibitor = -2%
Cn1c(=O)n(C)c2cc(N3CCOCC3)c(NS(=O)(=O)c3ccc(Cl)cc3)cc21
  VDR inhibitor = -5%
O=C(Nc1nccs1)c1ccc(Br)c(S(=O)(=O)N2CCCC2)c1
  VDR inhibitor = 5%
CCOC(=O)NNC1CC(=O)N(c2ccc(OC)cc2)C1=O (centres undefined)
  VDR inhibitor = 9%
S=C(Nc1ccccc1)Nc1ccc(Br)cc1
  VDR inhibitor = -25%
CCn1nnnc1Oc1ccc(Cl)cc1
  VDR inhibitor = -13%
COc1ccc(C2C(C(=O)Nc3ccccn3)=C(C)Nc3ncnn32)c(OC)c1 (centres undefined)
  VDR inhibitor = 7%
CC[N+](C)(CC)CC(=O)OCC1C(C)C=C(C)CC1C (centres undefined)
  VDR inhibitor = 21%
CCn1c(SCC(=O)c2ccc(OC)cc2)nnc1C(C)NC(=O)c1ccc(OC)cc1 (centres undefined)
  VDR inhibitor = -9%

CC(C)N(Cc1ccccc1)C(=O)CN1C(=O)CSc2ccc(S(=O)(=O)N3CCCC3)cc21
  VDR inhibitor = 1%
O=S(=O)(c1ccccc1)c1cccc(S(=O)(=O)N2CCCCC2)c1
  VDR inhibitor = 1%
CC(C)(Sc1ccc(CCN(CCCCC2CCCCC2)C(=O)NC2CCCCC2)cc1)C(=O)O
  VDR inhibitor = 40µM*
COc1ccc(CNC(=O)C(=O)NCC2OCCN2S(=O)(=O)c2ccc3c(c2)OCCO3)cc1 (centres undefined)
  VDR inhibitor = -14%
CN(Cc1ccccc1)C(=O)Cc1ccccc1
  VDR inhibitor = -9%
O=C(N/N=C/c1cccnc1)c1ccccc1
  VDR inhibitor = -26%
CC(NC(=O)c1ccco1)C(=O)N1CCN(c2cccc(C(F)(F)F)c2)CC1 (centres undefined)
  VDR inhibitor = 5%
COc1ccc(C(=O)NCC(=O)OCc2ccccc2F)cc1
  VDR inhibitor = 1%
COC(=O)c1ccccc1NC(=O)c1cc[n+]([O-])cc1
  VDR inhibitor = 5%
O=C(CN1C(=O)NC2(CCc3ccccc3C2)C1=O)NCc1ccco1 (centres undefined)
  VDR inhibitor = 2%

CCOCCCNC(=O)N[C@H](C(=O)OC)C(C)CC (some centres undefined)
  VDR inhibitor = -8%
Cc1c(C(=O)OCC(=O)N(CC(C)C)c2c(N)n(Cc3ccccc3)c(=O)[nH]c2=O)oc2ccccc12
  VDR inhibitor = -9%
Cc1ccc(NC(=O)C(C)Sc2nnc(-c3cccnc3)o2)cc1 (centres undefined)
  VDR inhibitor = 20%
O=C(COC(=O)C1=COCCO1)NCc1ccc(F)cc1
  VDR inhibitor = -7%
CC(C)C1COc2cc3oc(=O)ccc3cc2O1 (centres undefined)
  VDR inhibitor = 7%
COc1ccc2c(c1)-c1c(ssc1=S)C(C)(C)N2S(=O)(=O)c1ccc(C)cc1
  VDR inhibitor = -17%
Cc1cc(S(=O)(=O)ON2C(=O)c3ccccc3C2=O)ccc1F
  VDR inhibitor = 32µM*
CCCCc1nc2cc(C(=O)N3CCCC(COC)C3)ccc2o1 (centres undefined)
  VDR inhibitor = -13%
CCOC(=O)C(C(=O)NCc1ccc(C)cc1)c1ncc(C(F)(F)F)cc1Cl (centres undefined)
  VDR inhibitor = 4%
CCN(CCNC(=O)C1=C(C)C(=O)OC12CCC(C)CC2)c1ccccc1 (centres undefined)
  VDR inhibitor = 12%
Cc1c(OC(C)C(=O)NCc2ccncc2)ccc2c3c(c(=O)oc12)CCCC3 (centres undefined)
  VDR inhibitor = 0%

An excerpt; the hit share may differ from the screen's.
